High-throughput results (PubChem BioAssay)
Mtb growth – Mycobacterium tuberculosis H37Rv growth inhibition, cell based, confirmatory dose response (AID 1949). M. tuberculosis H37Rv growth inhibition. most inactive calls were filed without a number and no value below 0 was filed. inhibition, % at 10 µg/mL; hits with a dose series show IC50 in µg/mL. 100,000 compounds, 1.6% hits;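 active means confirmed in a dose series; inconclusive means about 50% or more but not retested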;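 further: bacteria grown 7 days with compound before Alamar blue readout; 0% = untreated bacteria and 100% = reference antibiotic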
An asterisk follows results filed as active; i = inactive; ? = inconclusive. Not all compounds are listed, so the mix of outcomes need not match the whole.

The opening 5 entries (preview)
cpd	SMILES	Mtb growth
1	COc1ccc(S(=O)(=O)N2Cc3ccccc3CC2C(=O)NC(C)(C)C#N)cc1 (stereo not drawn)	i
2	CCOC(=O)c1cc2c3ccccc3n(CC)c2nc1N	1%
3	CC(C)(C)c1ccc(NC(=O)Nc2nnc(-c3ccccc3Cl)s2)cc1	i
4	Cc1cc(C)c2c(CC(=O)O)coc2c1	i
5	CC(C)CNC(=O)c1cccc(NC(=O)CSCc2ccccc2)c1	i

Main list, from the start:
cpd	SMILES	Mtb growth
1	COc1ccc(S(=O)(=O)N2Cc3ccccc3CC2C(=O)NC(C)(C)C#N)cc1 (stereo not drawn)	i
2	CCOC(=O)c1cc2c3ccccc3n(CC)c2nc1N	1%
3	CC(C)(C)c1ccc(NC(=O)Nc2nnc(-c3ccccc3Cl)s2)cc1	i
4	Cc1cc(C)c2c(CC(=O)O)coc2c1	i
5	CC(C)CNC(=O)c1cccc(NC(=O)CSCc2ccccc2)c1	i
6	O=S(=O)(NC1CC2CCC1C2)c1cccs1 (stereo not drawn)	1%
7	CC(C)c1cc(Br)ccc1NC(=O)COc1ccc(Cl)cc1	i
8	COc1ccc(C(=O)NC(=S)Nc2ccc([N+](=O)[O-])cc2O)cc1Br	<0.1µg/mL*
9	COc1ccc(-c2csc(NC(=S)NC(=O)c3ccc(C)c(C)c3)n2)cc1OC	i
10	CCOC(=O)c1ccccc1NS(=O)(=O)c1ccc(OCC)cc1	i
11	O=C(O)CCCC(=O)Nc1nc(-c2ccc(Cl)cc2Cl)cs1	i
12	CCN(CC)CCNC(=O)C1CCN(S(=O)(=O)c2ccc(Cl)cc2)CC1	i
13	CCCc1cc(=O)[nH]c(/N=C(\NC(=O)c2ccccc2)Nc2ccc3c(c2)OCCO3)n1	i
14	COc1ccccc1OCC(=O)N(C)c1ccccc1	i
15	Cc1cc(C)n(C(=O)C(Cc2ccccc2)N2C(=O)C3CCCCC3C2=O)n1 (stereo not drawn)	3%
16	N#C/C(=C\c1cnn(-c2ccccc2)c1)c1nc2ccccc2[nH]1	i
17	COCC(=O)Nc1ccc(F)c(Cl)c1	i
18	COc1ccc(S(=O)(=O)Nc2ccc(I)cc2C)cc1OC	i
19	Cc1ccc(N(Cc2ccc(C(=O)NCc3ccccc3Cl)cc2)S(C)(=O)=O)cc1C	i
20	O=C(Nc1cccc2nonc12)C(F)(F)C(F)(F)C(F)(F)F	5%
21	CCN(CC)C(=O)C1=C(C)NC(=S)NC1c1cc(OC)ccc1OC (stereo not drawn)	i
22	CCCOc1cccc(C(=O)Nc2ccccc2C#N)c1	3%
23	C=CCNC(=O)c1ccccc1NC(=O)CN(c1ccc(OC)cc1OC)S(=O)(=O)c1ccccc1	i
24	COc1cc(Cl)ccc1S(=O)(=O)N1CCN(c2ccc(F)cc2)CC1	i
25	Cc1occc1C(=O)Nc1c(F)c(F)c(F)c(F)c1F	0%
26	COc1ccc(OC)c(NC(=O)c2c(NCc3ccccn3)sc3c2CCCC3)c1	i
27	CCOc1ccccc1OCC(=O)Oc1ccc(C(=O)Nc2ccc(C)cc2)cc1	i
28	Cc1ccc(CC(=O)Nc2ccccn2)cc1	i
29	COc1ccccc1OCC(=O)N1C(C)CCCC1C (stereo not drawn)	i
30	COc1cc(OC)cc(N2C(=O)CC(N3CCC(C(=O)N4CCCCC4)CC3)C2=O)c1 (stereo not drawn)	i

(continued)
cpd	SMILES	Mtb growth
31	Cc1ccc(CN(CC(=O)N2CCOCC2)S(=O)(=O)c2ccccc2)cc1	1%
32	CCN(CC)S(=O)(=O)c1ccc(Cl)c(NC(=O)c2ccncc2)c1	i
33	O=C(CSCc1ccccc1Br)NC1CCCCCC1	i
34	CCOc1cc(C(=S)N2CCN(Cc3ccccc3)CC2)ccc1O	i
35	O=C(NC1CCS(=O)(=O)C1)c1cccs1 (stereo not drawn)	i
36	C=CCn1c(SCC(=O)Nc2ccccc2)nc2ccccc2c1=O	i
37	COc1ccccc1CNC(=O)c1cccc(OC(C)=O)c1	i
38	CCCCOc1ccccc1NC(=O)COc1ccc(Cl)cc1Cl	i
39	COc1ccccc1OCc1nc(-c2cccc(C)c2)no1	11%
40	C(=C\c1ccccc1)/CSc1nnc(SCc2ccccc2)s1	6%
41	O=C(CN1C(=O)c2ccccc2C1=O)Nc1cc([N+](=O)[O-])ccc1O	i
42	CCOc1ccccc1CNCCNCC(C)O (stereo not drawn)	i
43	Cc1sc2nc(SCC(=O)N(C3CCCCC3)C3CCCCC3)n(C)c(=O)c2c1C	i
44	CC(=O)c1ccc(NC(=O)Nc2c(F)cc(F)cc2Br)cc1	i
45	CCOC(=O)c1ccc(N2C(=O)CC(N3CCN(C4CCCCC4)CC3)C2=O)cc1 (stereo not drawn)	2%
46	CCn1c(COc2cccc3cccnc23)nnc1SCC(=O)c1ccc(-c2ccccc2)cc1	i
47	CCC(C)NC(=O)c1ccccc1NC(=O)CN(c1ccccc1Cl)S(C)(=O)=O (stereo not drawn)	i
48	Cc1ccc(C)c(NC(=O)C(=O)NCCc2ccc(F)cc2)c1	i
49	CCNC(=O)CSc1ccc(Cl)cc1	i
50	COc1cc(NC(=S)Nc2cccnc2)cc(OC)c1	i
51	Cc1ccc(N2CCN(C(=O)c3ccccc3Br)CC2)c(C)c1	5%
52	C=CCn1c(CCNC(=O)c2cccs2)nnc1SCC(=O)c1ccc(Br)cc1	i
53	COc1cccc(N2C(=O)c3cccc4c(Br)ccc(c34)C2=O)c1	1%
54	COc1ccc(C2NC(=O)NC(C)=C2C(=O)Nc2ccccc2Cl)cc1 (stereo not drawn)	i
55	COc1ccc(CNC(=O)CSc2nnc(NC(=O)c3ccccc3Br)s2)cc1	i
56	COc1cccc(C2C(C(=O)c3ccc(C)o3)=C(O)C(=O)N2CCN(C)C)c1OC (stereo not drawn)	i
57	O=C(Nc1sc2c(c1C(=O)NCc1ccco1)CCC2)c1ccc([N+](=O)[O-])cc1	i
58	CSc1nc2c(c(=O)[nH]1)C(c1ccc([N+](=O)[O-])cc1)C1=C(CCCC1=O)N2 (stereo not drawn)	i
59	O=C(Oc1ccc2c(=O)c(Oc3ccccc3Cl)coc2c1)c1ccco1	i
60	O=C(CSc1nnc(-c2cccc(F)c2)n1-c1ccccc1)NCC1CCCO1 (stereo not drawn)	i

New compounds follow:
cpd	SMILES	Mtb growth
61	COc1ccc(NC(=O)c2c(F)c(F)c(F)c(F)c2F)cc1[N+](=O)[O-]	i
62	COc1ccc(Cl)cc1NC(=O)c1ccoc1C	i
63	O=C(COc1ccccc1)NC1C(=O)N2C(C(=O)O)=C(Cl)CSC12 (stereo not drawn)	i
64	Cc1ccc(NC(=O)C(=O)NCCN2CCN(C(=O)c3ccc(Cl)cc3Cl)CC2)cc1C	9%
65	O=C(Nc1cccnc1)c1csc2c1CCCC2	i
66	CC(=O)c1cnc2c(-c3ccccc3)c(C(F)(F)F)nn2c1C	?
67	COC(=O)c1ccc(NC(=O)CSc2n[nH]c(CC(C)C)n2)cc1	i
68	Cc1cc(NS(=O)(=O)c2ccc3c(c2)OCCO3)ccc1Br	i
69	Cc1c(Cl)cccc1NC(=O)CSc1ccccn1	i
70	CCOc1cc(C2NC(=S)NC(C)=C2C(=O)Nc2ccccc2)cc(I)c1OCC#N (stereo not drawn)	i
71	COc1ccc(CN2CCC(C(=O)N3CCN(c4ccccc4F)CC3)CC2)c(OC)c1	i
72	CC(C(=O)N1CCN(c2ccccn2)CC1)c1ccc([N+](=O)[O-])cc1 (stereo not drawn)	i
73	Cc1cccc(NC(=O)CC2NCCNC2=O)c1 (stereo not drawn)	i
74	CC(C)OC(=O)c1cn(-c2ccccc2)nc1-c1ccc2c(c1)OCCO2	35%
75	CCOC(=O)c1cccc(NC(=O)C2CCCO2)c1 (stereo not drawn)	i
76	Oc1ccc(O)c(SCCCCN2CCOCC2)c1	i
77	O=C(CN(Cc1ccc(F)cc1)S(=O)(=O)c1ccccc1)Nc1ccc(F)cc1F	i
78	Cc1nnc(SCC(=O)N2CCCc3ccccc32)[nH]c1=O	2%
79	CC(C)(C)NS(=O)(=O)c1ccc(NS(=O)(=O)Cc2ccccc2)cc1	i
80	COc1cc(OC)c(C(=O)Nc2cccc(Cl)c2C)cc1OC	i
81	O=C1/C(=C\c2ccc(-c3ccc(Br)cc3)o2)SC(=S)N1CC1CCCO1 (stereo not drawn)	i
82	O=C(Cc1ccccc1)Nc1ccc(NC(=S)NC(=O)c2ccccc2)cc1	i
83	CCNS(=O)(=O)c1ccc(NC(=O)Cc2ccc(F)cc2)cc1	i
84	OCc1cc(Br)ccc1OCc1ccc(Cl)cc1Cl	3%
85	CCc1ccc(OCC(=O)N(Cc2ccc(OC)cc2)C2CCS(=O)(=O)C2)cc1 (stereo not drawn)	i
86	C=C(C)CSc1ncnc2c1sc1nc3c(cc12)COC(C)(C)C3	30%
87	CCOC(=O)c1ccc(NC(=O)CN(Cc2ccc(F)cc2)S(=O)(=O)c2ccccc2)cc1	21%
88	COc1ccc(N2CCN(C(=O)c3ccc(NS(=O)(=O)c4cccc(F)c4)cc3)CC2)cc1	i
89	Nc1ccccc1C(=O)NC1CCCC1	i
90	S=C(NCCSCc1cccs1)Nc1ccccc1	i

(continued)
cpd	SMILES	Mtb growth
91	Cc1cccc(NS(=O)(=O)c2ccccc2)c1C	i
92	CCOc1ccc(C(C)NC(=S)Nc2ccccc2OCC)cc1 (stereo not drawn)	3%
93	CCOC(=O)c1sc2nc(N3CCOCC3)c3c(c2c1N)CCN(C)C3	i
94	COc1cc(-c2nnc(-c3cc(-c4ccccc4)nc4ccccc34)o2)cc(OC)c1OC	i
95	CCCN1C(=O)C(NC(=O)c2ccc(F)cc2)(C(F)(F)F)C2=C1CC(C)(C)CC2=O (stereo not drawn)	i
96	COc1ccccc1/C=C/C=N/N1CCN(c2ccccn2)CC1	1%
97	COc1ccc(Cc2nnc(SCC(=O)Nc3c(C)cc(C)cc3C)n2C)cc1	i
98	COCCSc1nnc(NC(=O)CC(c2ccccc2)c2ccccc2)s1	12%
99	N#Cc1c(SCCN2CCCC2)nc2c(c1C(F)(F)F)CCCCC2	48%
100	CCCCOC(=O)Nc1nc2ccc(OC)cc2s1	i
101	O=C(NC(=S)Nc1cccc(-c2nc3ccccc3[nH]2)c1)c1ccccc1[N+](=O)[O-]	i
102	Cc1ccc(N(C)C(=O)Nc2ccc(C)c(Cl)c2)cc1	2%
103	O=C(OCc1ccc(Br)cc1)c1ccc(NS(=O)(=O)c2ccccc2)cc1	3%
104	NC(=O)C1CCN(C(=O)CN2CCN(c3cccc(C(F)(F)F)c3)CC2)CC1	i
105	CCc1cc(=O)oc2c(O)c(O)ccc12	i
106	CCc1cc2c3c(c(=O)oc2cc1OC)CCCC3	8%
107	CC(C)NCCCCOc1cccc(Br)c1	i
108	Cc1ccc(S(=O)(=O)c2cccc(S(=O)(=O)NC3CCCC3)c2)cc1S(=O)(=O)NC1CCCC1	i
109	Cc1ccccc1C1CC(=O)NC(SCC(=O)Nc2cccc(Cl)c2C)=C1C#N (stereo not drawn)	i
110	CCOc1ccccc1NC(=O)c1c(NC(=O)c2ccccc2Cl)sc2c1CCC(C)C2 (stereo not drawn)	i
111	COC(=O)CSc1nnc(-c2ccc(C)cc2)o1	0.15µg/mL*
112	Cc1nnc(SCC(=O)NC2CCCCC2C)s1 (stereo not drawn)	i
113	COc1ccc(CC(=O)Oc2ccc(C)cc2C)cc1	8%
114	O=C(NCc1ccco1)C(=S)N1CCOCC1	i
115	COC(=O)c1c(NC(=O)c2ccncc2)sc2c1CCC(C(C)(C)C)C2 (stereo not drawn)	i
116	CCOc1ccccc1N1CCN(C(=O)CCCOc2ccc(Cl)cc2C)CC1	9%
117	COc1ccccc1N1CCN(S(=O)(=O)c2ccc(Br)s2)CC1	i
118	CCc1ccc(OCCNC(=O)c2ccccc2C(F)(F)F)cc1	0%
119	COc1c(Cl)cc(Cl)cc1C(=O)Nc1ccc(CN2CCOCC2)cc1	6%
120	Cc1cc(C)c(C)c(/C=C(/C#N)C(N)=S)c1C	i

More compounds follow:
cpd	SMILES	Mtb growth
121	O=C(CNS(=O)(=O)c1ccccc1)Nc1ccccc1Br	i
122	CCCS(=O)(=O)N1N=C(c2ccc(Cl)cc2)CC1c1ccco1 (stereo not drawn)	1%
123	O=C(CSc1nnc(-c2ccccc2)o1)Nc1nc(-c2ccccc2)ns1	i
124	CC(=O)Nc1cccc(NC(=S)Nc2ccc(Br)cc2Cl)c1	i
125	O=C(NN1CCOCC1)c1sc2cccc(F)c2c1Cl	i
126	O=C(CN1CCN(Cc2ccc3c(c2)OCO3)CC1)c1ccc(F)cc1	i
127	COC(=O)Cc1c(C)c2ccc(OC3CCCCC3=O)cc2oc1=O (stereo not drawn)	2%
128	COCCCNCCOCCOc1ccc(Cl)c(Cl)c1	i
129	CC1CN(c2ccc([N+](=O)[O-])cc2)CCN1C(=O)c1cccc(Br)c1 (stereo not drawn)	2.8µg/mL*
130	CCOC(=O)C(CCOCCOc1cccc(CC)c1)C(=O)OCC	i
131	Cc1c(C(=O)N2CCN(c3ccccn3)CC2)oc2ccccc12	i
132	O=C(O)CC(NCc1ccco1)C(=O)Nc1cccc(C(F)(F)F)c1 (stereo not drawn)	i
133	COc1ccc(NS(=O)(=O)Cc2ccccc2)cc1OC	i
134	CCCCCc1nnc(NC(=O)C(=O)OCC)s1	i
135	CCOc1ccccc1NC(=O)c1c(NC(=O)Cc2ccccc2)sc2c1CCCCC2	i
136	Cc1ccc(-n2c(=S)[nH]c3ccccc3c2=O)c(C)c1	i

A different layout for four compounds above:
87) CCOC(=O)c1ccc(NC(=O)CN(Cc2ccc(F)cc2)S(=O)(=O)c2ccccc2)cc1
  Mtb growth: 21%
36) C=CCn1c(SCC(=O)Nc2ccccc2)nc2ccccc2c1=O
  Mtb growth: i
74) CC(C)OC(=O)c1cn(-c2ccccc2)nc1-c1ccc2c(c1)OCCO2
  Mtb growth: 35%
26) COc1ccc(OC)c(NC(=O)c2c(NCc3ccccn3)sc3c2CCCC3)c1
  Mtb growth: i
